Screening results as filed in PubChem BioAssay.
WRN helicase inh = inhibitors of human WRN helicase. 360,000 compounds, 0.46% hits. Q14191. Potency, µM (top dose mostly 114 µM), inactives show at the highest dose activity change, negative = inhibition, actives largely listed as inhibitors. WRN helicase unwinding, fluorescent forked duplex, kinetic; note: potency is the fitted concentration of half-maximal effect; % is set by controls: 0 for no effect and ±100 for the full control effect; nearly all actives have a fitted effect of over 55% in size
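WRN at 20 nM final preincubated with compound 15 min at room temperature; reaction started with 100 nM fluorophore/quencher forked duplex oligonucleotide and 2 mM ATP final. Unwinding followed kinetically by red fluorescence (ex 525, em 598 nm).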
KB-V1 MDR tox = kills drug-selected multidrug resistant KB-V1 cells | Potency, µM (titrated, usually from 46.1 µM), for the others: top-dose activity change, negative = cytotoxicity, actives largely listed as cytotoxic | 400,000 compounds, 3.4% hits | KB-V1 MDR cells viability, CellTiter-Glo, 72 h; note: potency is the fitted concentration of half-maximal effect; % is set by controls: 0 for no effect and ±100 for the full control effect; nearly all actives have a fitted effect of over 60% in size
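Following 72 h at 37 degrees C with compound, KB-V1 cell viability was read by CellTiter-Glo luminescence, medium being phenol-red-free DMEM plus 10% FBS; concentration-response parameters came from normalized, curve-fitted qHTS data.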
KB-3-1 tox = kills parental KB-3-1 adenocarcinoma cells; 400,000 compounds, 1.4% hits; KB-3-1 viability, CellTiter-Glo ATP luminescence, 72 h; AID 1347075; Potency, µM (top dose mostly 46.1 µM), for the others: top-dose activity change, negative = cytotoxic, actives largely listed as cytotoxic; note: potency is the fitted concentration of half-maximal effect; % is set by controls: 0 for no effect and ±100 for the full control effect; nearly all actives have a fitted effect of over 60% in size
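Multi-concentration cytotoxicity screen in KB-3-1 cells grown in DMEM lacking phenol red with 10% FBS. After 72 h at 37 °C with compound, ATP-dependent luminescence was recorded.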
IL-1B inflam inh = inhibitors of inflammasome signaling (IL-1 beta secretion); AID 743279; 360,000 compounds, 4.7% hits; activity change, % at 57.5 µM; THP-1 LPS/ATP IL-1B secretion, AlphaLISA, 16 h; hits give low values; in the data active = activity change below about -50%; inconclusive = mostly about -30% to -49%; note: % is set by controls: 0 for no effect and ±100 for the full control effect
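THP-1 cells pretreated 1 hr with compounds (up to 57.5 uM final), then stimulated with LPS (250 ng/mL final) plus ATP (1.25 mM final); secreted IL-1B measured by AlphaLISA after 16 hr, decreased signal indicating inhibition.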
MCF10A rereplic = DNA re-replication induction in MCF 10a cells | Potency, µM (top dose mostly 46.1 µM), inactives show at the top dose activity, positive = re-replication, hits mostly activators | 350,000 compounds, 2.9% hits | AID 624296 | MCF 10A DNA re-replication, Hoechst nuclear intensity, 48 h; note: potency is the fitted concentration of half-maximal effect; % of control where 0% means no effect; nearly all actives have a fitted effect of over 50% in size
SW480 rerep = induces DNA re-replication in SW480 colon adenocarcinoma cells; SW480 DNA re-replication, Hoechst DNA content imaging, 48 h; Potency, µM (highest dose often 46.1 µM), without a hit: at the highest dose re-replication activation, most hits filed as activators; 340,000 compounds, 1.8% hits; AID 624297; note: potency is the fitted concentration of half-maximal effect; % of control where 0% means no effect; nearly all actives have a fitted effect of over 55% in size
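Hoechst fluorescence of nuclei (405 nm excitation, 500-530 nm emission) measured by plate-scanning imager after 48 hr compound exposure at 37 C; re-replication scored as increased number of nuclei with elevated intensity.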
Numbers without * were called inactive; ? = inconclusive; / = no result given; & = joins results of further samples; [ ] = another dose, or the depositor's remark. Unless noted, calls come from the whole dose curve; as a rule, active = well fitted curve in the direction sought with a large enough effect; inconclusive = small, poorly fitted or top-dose-only effect, or another doubt; inactive = no such curve, though single readings can be large; an effect the other way counts as inactive or inconclusive.

1) Cc1cc(-c2ccc(N)c(C)c2)ccc1N
2) CN(C)N=O
3) NC(N)=NS(=O)(=O)c1ccc(N)cc1
4) O=[N+]([O-])NC1=NCCN1Cc1ccc(Cl)nc1
5) CC(C)C1(C)N=C(c2nc3ccccc3cc2C(=O)O)NC1=O (stereo unspecified)
Screen / compound no.	1	2	3	4	5
WRN helicase inh	-11%	7%	0%	15%	-3%
KB-V1 MDR tox	-5%	18%	-2%	7%	16%
KB-3-1 tox	-6%	0%	0%	0%	-4%
IL-1B inflam inh	-12	11	-9	17	40
MCF10A rereplic	2%	-3%	?	15%	-4%
SW480 rerep	-3%	15%	-23%	5%	-1%

Next part, overlapping the part above by three compounds.
3) NC(N)=NS(=O)(=O)c1ccc(N)cc1
4) O=[N+]([O-])NC1=NCCN1Cc1ccc(Cl)nc1
5) CC(C)C1(C)N=C(c2nc3ccccc3cc2C(=O)O)NC1=O (stereo unspecified)
6) CN(C)CCCOc1nn(Cc2ccccc2)c2ccccc12
7) Nc1ccc(-c2ccc(N)cc2)cc1
8) Cc1ccc(CNC2=NCCS2)cc1
9) O=[N+]([O-])c1cc(C(F)(F)F)ccc1Cl
10) c1ccc(OCC2CO2)cc1 (stereo unspecified)
Screen / compound no.	3	4	5	6	7	8	9	10
WRN helicase inh	0%	15%	-3%	2%	6%	9%	4%	2%
KB-V1 MDR tox	-2%	7%	16%	?	2%	6%	5%	21%
KB-3-1 tox	0%	0%	-4%	0%	7%	-3%	0%	0%
IL-1B inflam inh	-9	17	40	-10	-15	10	?	18
MCF10A rereplic	?	15%	-4%	-28%	3%	-2%	?	?
SW480 rerep	-23%	5%	-1%	-4%	-2%	4%	6%	1%

Some of these compounds in order of number of heavy atoms, descending.
5) CC(C)C1(C)N=C(c2nc3ccccc3cc2C(=O)O)NC1=O (stereo unspecified)
1) Cc1cc(-c2ccc(N)c(C)c2)ccc1N
8) Cc1ccc(CNC2=NCCS2)cc1
2) CN(C)N=O
Screen / compound no.	5	1	8	2
WRN helicase inh	-3%	-11%	9%	7%
KB-V1 MDR tox	16%	-5%	6%	18%
KB-3-1 tox	-4%	-6%	-3%	0%
IL-1B inflam inh	40	-12	10	11
MCF10A rereplic	-4%	2%	-2%	-3%
SW480 rerep	-1%	-3%	4%	15%

(further entries)
11) COC(C)(C)CCCC(C)C/C=C/C(C)=C/C(=O)OC(C)C (stereo unspecified)
12) S=C1NCCN1
13) CNC(=O)CSP(=S)(OC)OC
14) CNC(=O)Oc1cccc2ccccc12
15) Cc1ccc(N)cc1Cl
Screen / compound no.	11	12	13	14	15
WRN helicase inh	6%	-6%	3%	-2%	-4%
KB-V1 MDR tox	0%	8%	17%	3%	13%
KB-3-1 tox	0%	0%	0%	-8%	-2%
IL-1B inflam inh	36	28	-19	14	21
MCF10A rereplic	-15%&0%	-9%	?	0%&1%	1%
SW480 rerep	-30%&9%[inhibitor]	-7%	1%	0%&0%	-3%

Filtered by structure: the compounds so far with a carbonyl joined to an NH by a bond outside any ring.
13) CNC(=O)CSP(=S)(OC)OC
14) CNC(=O)Oc1cccc2ccccc12
Screen / compound no.	13	14
WRN helicase inh	3%	-2%
KB-V1 MDR tox	17%	3%
KB-3-1 tox	0%	-8%
IL-1B inflam inh	-19	14
MCF10A rereplic	?	0%&1%
SW480 rerep	1%	0%&0%

Continued.
16) COc1ccc(O)c(C(C)(C)C)c1
17) C[C@]12CC[C@H](O)C[C@@H]1CC[C@H]1[C@H]3CCC(=O)[C@@]3(C)CC[C@@H]12
18) BrCCc1ccccc1
19) CCC(=O)Nc1ccc(Cl)c(Cl)c1
20) C[C@]12CCC3[C@@H](CC[C@@H]4C[C@H](O)CC[C@]34C)[C@@H]1CCC2=O (stereo partly specified)
Screen / compound no.	16	17	18	19	20
WRN helicase inh	7%	-2%	1%	4%	-2%
KB-V1 MDR tox	15%	-5%	13%	-2%	?
KB-3-1 tox	0%	-10%	0%	0%	0%
IL-1B inflam inh	-7	-25	8	-9	16
MCF10A rereplic	-6%	/	20%	22%	?
SW480 rerep	-4%	/	-80%[inhibitor]	1%	16%

21) Cc1cc(Cl)ccc1OCC(=O)O
22) O=[N+]([O-])c1c(Cl)c(Cl)c(Cl)c(Cl)c1Cl
23) CCOCN(C(=O)CCl)c1c(C)cccc1CC
24) C[C@]12CCC3C(CC[C@@H]4CC(=O)CC[C@]34C)C1CC[C@@H]2O (stereo partly specified)
25) O=C(O)c1cc(Oc2ccc(C(F)(F)F)cc2Cl)ccc1[N+](=O)[O-]
26) C[C@]12CCC3C(CC[C@@H]4C[C@H](O)CC[C@]34C)C1CCC2=O (stereo partly specified)
Screen / compound no.	21	22	23	24	25	26
WRN helicase inh	-2%	-7%	3%	10%	2%	-10%
KB-V1 MDR tox	10%	27%	16%	?	-1%	11%
KB-3-1 tox	0%	9%	-12%	7%	0%	-3%
IL-1B inflam inh	1	-21	-60*	12	5	0
MCF10A rereplic	?	0%	0%	-13%	-1%	2%
SW480 rerep	2%	-3%	?	1%	-57%[inhibitor]	-1%

An excerpt (hit frequency here may not be typical).
